Compound activity as filed in PubChem.
AmpC nodet inh = inhibitors of E. coli AmpC beta-lactamase without detergent. P00811. AmpC nitrocefin hydrolysis, absorbance 480 nm, no detergent; potencies from a single point are estimates. Potency, µM (titrated, usually from 28.7 µM), for the others: at the top dose activity change, negative = inhibition. hit rate 1.8% among 71,000. AID 585; active = falling curve, for most hits resting on a single point; inconclusive = weak or doubtful change; inactive = flat or rising curve; further: % of control where 0% means no effect; about half of the hits show no inhibition at the top dose; a quarter of the inactives give rising signals
Target sequence (P00811 whole entry, looked up): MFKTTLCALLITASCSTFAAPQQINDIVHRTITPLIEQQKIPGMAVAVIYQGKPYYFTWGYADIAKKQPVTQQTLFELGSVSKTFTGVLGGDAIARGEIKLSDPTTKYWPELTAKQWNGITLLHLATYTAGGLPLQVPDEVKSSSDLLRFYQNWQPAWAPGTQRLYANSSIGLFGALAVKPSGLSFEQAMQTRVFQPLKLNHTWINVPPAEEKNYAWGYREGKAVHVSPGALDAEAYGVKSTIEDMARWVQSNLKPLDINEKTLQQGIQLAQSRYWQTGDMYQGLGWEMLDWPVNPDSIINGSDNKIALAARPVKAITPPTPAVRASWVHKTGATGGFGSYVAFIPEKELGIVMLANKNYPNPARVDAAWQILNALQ
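AmpC, 20 mM phosphate pH 7.0; 15 min cpd preinc, RT; start with nitrocefin (800 uM stock); A480 kinetic read, 20 s intervals, 4 min. No-enzyme wells = negative control.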
Numbers without * were called inactive; ? = inconclusive; & = joins results of further samples; [ ] = dose if it differs, or a comment. Potency means the concentration at half of the fitted maximal effect. Only part of the results is shown; rates above refer to the full screens.

molecule,AmpC nodet inh
Cc1cccc(-n2c(N)c(C(=O)NCCN3CCOCC3)c3nc4ccccc4nc32)c1,128%
O=S(=O)(c1cccc2cccnc12)N1CCN(Cc2ccc3c(c2)OCO3)CC1,53%
N#Cc1c2n(c3c(=O)n(Cc4ccccc4Cl)cnc13)CCCC2,38%
CCc1nnc(NC(=O)C2CCN(c3nccc(C)n3)CC2)s1,?
COC(=O)c1c(NC(=O)CSc2nnc(Cn3nnc4ccccc43)n2C)sc(C)c1C,124%
COc1ccc(-c2nnc(SCC#N)o2)cc1,-10%
COc1ccc(NC(=O)CSc2nc3ccccc3c(=O)n2CCC(=O)N2CCCCC2)cc1,86%
O=C(CN1CC(c2ccccc2)CC1=O)NCc1ccc(F)cc1 (stereo unspecified),4µM*[single pt active]
Cc1ccc(-c2nnc(N3CCN(C(=O)c4ccco4)CC3)c3ccccc23)cc1,80%
Cc1c(Cl)cccc1-n1ccnc1SCC(=O)O,-3%
O=S(=O)(c1ccc(Oc2ccc(Br)cc2F)nc1)N1CCCCC1,1%
Cn1c(O)c(C=NC(CC(N)=O)C(=O)O)c(=O)n(C)c1=O (stereo unspecified),4%
O=C(Nc1cccc(Cl)c1N1CCCCC1)c1ccc2c(c1)OCCO2,-2%
Cc1noc(C)c1C(=O)OCC(=O)c1ccc[nH]1,-4%
COc1ccc(N2CCN(C(=O)CSc3nnc(-c4cc5ccccc5cc4O)n3C)CC2)cc1,74%
COCCOC(=O)C1=C(C)NC2=C(C(=O)CC(C)(C)C2)C1c1cccnc1 (stereo unspecified),4%
CCOC(=O)C1C(=O)OC2(CCCC2)C1C(=O)OCC (stereo unspecified),-8%
COc1ccc(NC(=O)CCc2nc(-c3ccc(C)cc3)no2)cc1Cl,-8%
Cn1c(N)c(C(=O)COC(=O)C2(c3cccc(F)c3)CCCC2)c(=O)n(C)c1=O,116%
CCOC(=O)/C(C#N)=C1/C=CN(C)C(C)=N1,-1%
COc1ccc2[nH]c3nc(SCc4nnc(-c5ccc(C)cc5)o4)nnc3c2c1,76%
COc1cc(C(=O)N(Cc2cc3cc(C)ccc3[nH]c2=O)CC2CCCO2)cc(OC)c1OC (stereo unspecified),71%
COCCN(Cc1cc2ccccc2[nH]c1=O)C(=O)c1ccccc1OC,4%
O=S(=O)(c1ccc(-c2nnc(SCc3ccccc3)o2)cc1)N1CCCC1,21%
CCn1c(CNC(=O)COC)nc2ccccc21,16%
Cc1cc(C)c(C(N)=O)c(Nc2ccc3c(c2)OCCO3)n1,-2%
Cc1ccc(OCc2nnc(SCc3cc(=O)[nH]c4ccccc34)o2)cc1,9%
CCc1nnc(NC(=O)CSc2nnc(-c3cc4ccccc4cc3O)n2CC)s1,14%
CC(=O)OCC(=O)[C@]12OC(C)(C)O[C@@H]1C[C@H]1[C@H]3CC=C4C[C@@H](O)CC[C@]4(C)[C@H]3CC[C@]12C,28%[5.75 µM]
Cn1c(=O)c(CCc2ccccc2)nc2cnc(N3CCNCC3)nc21,52%

The list continues.
molecule,AmpC nodet inh
CCCc1nc2ccccc2c(=O)n1NC(=O)c1c(O)c2ccccc2[nH]c1=O,-3%
Clc1ccc(OCc2nnc(-c3ccccc3Br)o2)cc1,-3%
O=C(O)CCc1ccc(-c2ccc(Br)cc2)n1Cc1ccco1,7%
Cc1ncc2c(c1O)COP(=O)(O)OC2,5%
Cc1ccc2cccc(Oc3nnnn3-c3ccccc3)c2n1,0%
Cc1c(C(=O)Nc2ccccc2)oc2c1C(=O)CC(C)(C)C2,-9%
COc1ccc(-c2nc3cnc(OC)nc3n(Cc3cccs3)c2=O)cc1,6%
O=C(Nc1cccc(F)c1)N1CCC2(CC1)CCN(C(=O)c1cc(C(F)(F)F)cc(C(F)(F)F)c1)CC2,21%
C/C(=C(\C#N)C(=O)NCCN1CCOCC1)N(C)C,0%
CCOC(=O)N1CCN(C(=O)c2ccc(C#CC3(O)CCCCC3)cc2)CC1,69%
COc1cc(NC(=O)c2cccs2)c(OC)cc1NC(=O)c1ccco1,41%
Cc1cc(NC(=O)CSc2ccc3nnc(-c4cccnc4)n3n2)no1,-5%
CCOC(=O)c1[nH]c(C(=O)O)c(CCC(=O)OC)c1C,0%
O=P(OC1CCS(=O)(=O)C1)(c1ccccc1)c1ccccc1 (stereo unspecified),-6%
O=C(Nc1ncc(Br)s1)C(Cc1ccccc1)n1cccc1 (stereo unspecified),13µM*
Cc1cccc(OCCCC(=O)Nc2ccc3c(c2)OCO3)c1,-6%
CC(=O)NC(CCS(C)(=O)=O)C(=O)Nc1cccc(C(C)=O)c1 (stereo unspecified),10%
Oc1c(CN2CCOCC2)cc(COCc2ccccc2)c2cccnc12,74%
CCOc1cc(-c2cc(-c3ccc(N)cc3)nc(N)c2C#N)ccc1O,?
Cc1onc(-c2ccccc2Cl)c1C(=O)NCC1CCCO1 (stereo unspecified),2%
CC(C)Oc1ccccc1C1CC(=O)Nc2cc3c(cc21)OCCO3 (stereo unspecified),2%
COc1ccc(C)cc1NC(=O)c1cc2c(CO)cnc(C)c2oc1=N,3.2µM*[single pt active]
COc1cccc(CN2CCN(C(=O)c3cccc(F)c3)CC2)c1,42%
CCCCn1c(SCC(=O)N2CCCC2)nc2c1c(=O)n(C)c(=O)n2C,12%
CCn1c(COc2ccc(C)cc2)nnc1SCC(=O)Nc1ccc(S(N)(=O)=O)cc1,27%
CCCC(=O)Nc1cc(C)c(NC(=O)Cc2ccccc2)cn1,-13%
CCOC(=O)c1c(C)oc2c1c(C=NCc1ccccn1)c(O)c1ccccc12,96%
O=C(CC1COc2ccccc2O1)Nc1ccccn1 (stereo unspecified),3%
O=C(O)[C@@H]1CCCN1Cc1cc2ccccc2c2ccccc12,-18%[5.75 µM]
CCCOc1ccc(N)cc1N,-7%

Rewritten field by field: entries from further up.
> COc1ccc(-c2nc3cnc(OC)nc3n(Cc3cccs3)c2=O)cc1
  AmpC nodet inh: 6%
> CCOC(=O)c1c(C)oc2c1c(C=NCc1ccccn1)c(O)c1ccccc12
  AmpC nodet inh: 96%
> CC(=O)NC(CCS(C)(=O)=O)C(=O)Nc1cccc(C(C)=O)c1 (stereo unspecified)
  AmpC nodet inh: 10%

(next part)
molecule,AmpC nodet inh
CCOC(=O)CNC(=O)CSc1nc(NCc2ccccc2)nc(N(C)C)n1,42%
Cc1nnc(NC(=O)Cc2ccc(OCc3c(C)noc3C)cc2)s1,1%
CCOC(=O)C1=C(O)C(=O)N(Cc2ccccc2)C1,-9%
CC1Cn2c(COc3ccccc3)nnc2S1 (stereo unspecified),7%
CC(=O)NC(CC(C)C)C(=O)NC(Cc1ccccc1)C(N)=O (stereo unspecified),10%
O=C(NCc1cn2ccccc2n1)c1ccccc1,-7%
COc1ccc2c(c1)[nH]c1c(C)nccc12,2%[12.8 µM]
C[C@H](CCC(=O)O)[C@H]1CC[C@@H]2[C@H]3CC[C@H]4C[C@@H](O)CC[C@@]4(C)[C@H]3CC[C@]21C,-4%[12.8 µM]
Cc1cc(C)n(-c2ccc(C(=O)Nc3ccc(S(=O)(=O)NCc4ccco4)cc3)cc2)n1,-9%
Cc1cccc(C(=O)NC2CC(C)(C)NC(C)(C)C2)c1,-6%
O=C(Cn1ncc2ccccc21)N1CCc2ccccc21,-3%
Cc1cc(NC(=O)c2ccc(S(=O)(=O)N3CCOCC3)cc2)nc2c1c(=O)oc1ccccc12,85%
CN1CCCC[C@@H]1CCN1CCCCC1,3%[5.75 µM]
O=C(c1ccc(Cn2c(=O)[nH]c3ccccc3c2=O)cc1)N1CCN(c2ccc(Cl)cc2)CC1,30%
CC(=O)Nc1ccc(OC(=O)c2cccnc2)cc1,0%
CC(=O)Nc1ccc(N2CCN(Cc3ccccc3F)CC2)cc1,12%
Cc1ccc2cc3cc(C(=O)N4CCN(C(=O)c5ccco5)CC4)sc3nc2c1,96%
c1ccc(C2CC2)c(OCC2=NCCN2)c1,24%&0%
O=C(c1cccc(F)c1)N1CCC2(CCCN(Cc3ccncc3)C2)CC1,62%
O=C(O)[C@@H]1[C@@H]2C[C@@H]3[C@@H](OC(=O)[C@@H]31)[C@H]2Br,-2%[5.75 µM]
Oc1ccc2[nH]ccc2c1,?
CCOC(=O)CCn1nc(-c2ccc(Cl)cc2)cc1N,20%
CON(C)C(=O)Nc1ccc(Cl)cc1,-4%
CCCCc1nnc(NC(=O)C=C(C)C)s1,-1%
CS(=O)(=O)NCCC1=CCCCC1,-2%
CC(=O)N(C)c1ccc(NC(=O)c2ccco2)cc1,0%
CCOc1ccccc1OCCCC(=O)NC1=NCCS1,0%
O=C(NCc1ccccc1)c1cc(-c2cccc(O)c2)on1,-22%
CCOc1ccc(C2C=C(c3ccccc3)Nc3nnnn32)cc1 (stereo unspecified),3%
O=C(NCC1COc2ccccc2O1)C1C2C=CC3(CN(Cc4ccccc4Cl)C(=O)C13)O2 (stereo unspecified),117%

Carrying on.
molecule,AmpC nodet inh
NC1=N[C@H](c2ccc(Cl)cc2)N(c2ccc(S(N)(=O)=O)cc2)C(N)=N1,-6%[5.75 µM]
O=C1c2ccccc2-c2c1nc1c([n+]2[O-])CCCC1,-12%
CC(C)CCn1c(N2CCOCC2)nc2c1c(=O)n(CC(N)=O)c(=O)n2C,20%
Cc1cc(C)n(-c2ccc(C(=O)Nc3ccccn3)cc2)n1,6%
Cc1nn(C)c(C)c1S(=O)(=O)N1CCC(C(=O)NC2CCCCC2)CC1,-4%
CCOC(=O)C1CCCN(C(=O)CN2C(=O)c3ccccc3C2=O)C1 (stereo unspecified),6%
OCCCSCCO,4%[5.75 µM]
O=C1OC(N2CCN(Cc3ccccc3)CC2)c2ccccc21 (stereo unspecified),-4%
O=C(Nc1sccc1C(=O)NCc1ccco1)c1cccnc1,-2%
CCOC(=O)N1CCC(NC(=O)c2cccn3c(=O)c4cc(Br)ccc4nc23)CC1,61%
COCCNC(=O)CN1CCC(n2c(C)nc3cc(C(F)(F)F)ccc32)CC1,78%
C=CCc1c(C)nc(SCC(=C)C)[nH]c1=O,-10%
COc1ccc(C[C@@H]2NC[C@H](O)[C@H]2OC(C)=O)cc1,9%
O=C(NCn1ccc(=O)[nH]c1=S)c1ccccc1,-7%
Cc1nc(-c2ccccc2)nc2[nH]c(=O)n(-c3ccccc3)c(=O)c12,17%
O=C(NC1CCCC1)C1CC(c2ccc(F)cc2)=NO1 (stereo unspecified),-4%
O=C1C(C=Nc2ccccc2O)=C(O)c2ccccc21,-22%
CC1CC(C)CN(CCCNC(=O)C2CCC(=O)N2C2CCCC2)C1 (stereo unspecified),-11%
Oc1ccc(OCc2ccccc2)cc1,0%[12.8 µM]
CSCCC(NC(=O)c1ccco1)C(=O)OC(C)C(=O)NC(=O)NC1CCCCC1 (stereo unspecified),27%
N=C(N)SCCc1ccccn1,-2%&-17%[5.75 µM]
O=C(COCCOCC(=O)N(c1ccccn1)C1CCCCC1)N(c1ccccn1)C1CCCCC1,124%
COC(=O)c1[nH]c2ccc(C)cc2c1NC(=O)CN1CCN(c2ccccc2)CC1,70%
COc1ccc(Cl)cc1N(CC(=O)Nc1ccccc1C(=O)NCc1ccco1)S(C)(=O)=O,38%
COc1cccc(-c2nc(CS(=O)CC(=O)NCc3ccccc3Cl)c(C)o2)c1 (stereo unspecified),71%
Clc1ccc(Cc2nn3c(Cn4nnc5ccccc54)nnc3s2)cc1,28%
Cc1ccccc1OCCCCCn1ccnc1,28%
NCCSCc1ccccc1Cl,-8%[5.75 µM]
COc1cc2[nH]c(=S)n(Cc3ccc(C)o3)c(=O)c2cc1OC,5%
Cc1cc(S(=O)(=O)NCC(C)C)ccc1OCC(=O)NCc1ccccn1,14%

(further entries)
molecule,AmpC nodet inh
Cc1cc2nc(SCC(=O)Nc3nonc3C)c3c(c2cc1C)CCCC3,13µM*
CCOC(=O)/C(C#N)=C(/C)c1ccc(OC)cc1,2%
COc1ccc(NC(=O)CN2CCN(CC(=O)Nc3ccccc3Cl)CC2)cc1Cl,113%
c1ccc(-c2cnc(CSc3ncnc4sccc34)o2)cc1,8%
Cc1noc(C)c1S(=O)(=O)NC1CCCc2ccccc21 (stereo unspecified),3%
CSc1ccccc1N=Cc1nc(-c2ccccc2)oc1O,-1%
CCOC(=O)C1C(=O)CC(C)(O)C(C(=O)OCC)C1c1ccc(OCC)cc1 (stereo unspecified),44%
NC(=O)Cn1nnc(-c2ccc(C(F)(F)F)cc2)n1,4%
CCN1CCN(S(=O)(=O)c2ccc(Br)s2)CC1,3%
Cc1ccc(-c2cc(C(F)F)nc(NCC3CCCO3)n2)cc1 (stereo unspecified),70%
S=C=S,1%
Cc1ccc2c(c1)c(C)c(C)n2CC(O)Cn1nnc2ccccc21 (stereo unspecified),38%

An excerpt of these results, as labelled records:
Cc1cc2nc(SCC(=O)Nc3nonc3C)c3c(c2cc1C)CCCC3
  AmpC nodet inh: 13µM*

CCOC(=O)/C(C#N)=C(/C)c1ccc(OC)cc1
  AmpC nodet inh: 2%
